Methyltransferases – Primary Screen for Target Class Profiling of Small Molecule Inhibitors of Methyltransferases. calls only at 40 µM. purified enzyme, MTase-Glo SAH luminescence; stronger effect = lower value. 25,000 tested, 3.9% active; active = -50% or lower on at least one of six enzymes; inconclusive = the cases between; inactive = as a rule above -30% on all six;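 also: enzymes were COMT GAMT GNMT HNMT NNMT and PNMT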
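Each enzyme was reacted with SAM and its substrate, with compounds tested once at 40 uM; SAH formed was read by MTase-Glo luminescence.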
Calls only; i = inactive; ? = inconclusive; + = active, no number. % is scaled to controls: 0 for no effect and ±100 for the full control effect. This is a subset (hit frequency here may not be typical).

The opening four compounds, ahead of the listing:
CCCn1c(=O)c2ccc(C(=O)NC(C)CC)cc2n2c(SCC(=O)Nc3ccc(F)cc3)nnc12 (configuration not stated)
  Methyltransferases: i
NC(=O)NCC(=O)N1CCC2(CCCN(CCCc3ccccc3)C2)C1 (configuration not stated)
  Methyltransferases: i
CC1CCN([C@@H]2[C@H](O)[C@H](CO)O[C@@H]2CN(Cc2ccc(F)cc2)Cc2ccc(F)cc2)CC1
  Methyltransferases: i
CCCC1c2cccn2CCN1C(=O)Nc1cccc(C(F)(F)F)c1 (configuration not stated)
  Methyltransferases: ?

This part in full, repeating the preview:
CCCn1c(=O)c2ccc(C(=O)NC(C)CC)cc2n2c(SCC(=O)Nc3ccc(F)cc3)nnc12 (configuration not stated)
  Methyltransferases: i
NC(=O)NCC(=O)N1CCC2(CCCN(CCCc3ccccc3)C2)C1 (configuration not stated)
  Methyltransferases: i
CC1CCN([C@@H]2[C@H](O)[C@H](CO)O[C@@H]2CN(Cc2ccc(F)cc2)Cc2ccc(F)cc2)CC1
  Methyltransferases: i
CCCC1c2cccn2CCN1C(=O)Nc1cccc(C(F)(F)F)c1 (configuration not stated)
  Methyltransferases: ?
CC1CCC(NC(=O)C2(C)Cn3c(ccc3-c3ccco3)C(=O)N2C2CCCC2)CC1 (configuration not stated)
  Methyltransferases: i
CC1=C[C@@H](CNS(=O)(=O)c2cccc(C#N)c2)[C@H](C(C)C)C[C@H]1CC(=O)N(C)Cc1cccnc1
  Methyltransferases: i
CCNC(=O)[C@@H]1C[C@H](n2cc(CN(C)C(=O)c3cccc(C)c3C)nn2)CN1
  Methyltransferases: i
CC1C/C=C/C=C\CCCCC(O)C/C=C/C(=O)O1 (configuration not stated)
  Methyltransferases: i
CCCCNc1ncc2c(-c3ccc(F)cc3)nn(CC3CCC(N)CC3)c2n1 (configuration not stated)
  Methyltransferases: i
COC(=O)c1cc2n(n1)CC(C)(C(=O)NC1CCC(C)CC1)N(Cc1ccccc1OC)C2=O (configuration not stated)
  Methyltransferases: i
c1ccc(-c2noc(-c3cncnc3NC3CCCCC3)n2)cc1
  Methyltransferases: i
O=C1NCc2nc3ccccc3c(=O)n2C1Cc1c[nH]c2ccccc12 (configuration not stated)
  Methyltransferases: i
N#Cc1cccnc1-c1ccc(C(=O)N2CCC(N[S+](=O)([O-])c3cccc(C(F)(F)F)c3)CC2)cc1
  Methyltransferases: i
Cc1ncsc1CCC(=O)N1CC[C@@H]2[C@@H](CCC(=O)N2CCN)C1
  Methyltransferases: i
CC(NC(=O)Cc1cc(F)cc(F)c1)C(=O)NC1C(=O)N(C)c2ccccc2-c2ccccc21 (configuration not stated)
  Methyltransferases: ?
CC(C)[C@@H](CS(=O)(=O)C(C)C)N1C(=O)[C@@](C)(CC(=O)O)C[C@H](c2cccc(Cl)c2)[C@H]1c1ccc(Cl)cc1
  Methyltransferases: i
Cc1ccccc1Cn1nc2n(Cc3ccccc3)c(=O)c3ccc(C(=O)NCC(C)C)cc3n2c1=O
  Methyltransferases: i
CCCn1c(=O)c2ccc(C(=O)NC(C)CC)cc2n2c(=O)n(CC(=O)c3ccc(Cl)cc3)nc12 (configuration not stated)
  Methyltransferases: i
COc1ccc(-c2cc3n(n2)CC(C)(C(=O)NC2CCCCC2)N(Cc2ccccc2F)C3=O)cc1 (configuration not stated)
  Methyltransferases: i
CN1C(=O)c2ccccc2NC(=O)[C@]12O[C@@H]2c1cccc(O)c1
  Methyltransferases: i
CN(C)C[C@@H]1CN(c2ncccn2)C[C@H]1N
  Methyltransferases: i
COC(=O)c1ncn2c1C(=O)N(C1CC1)C(C)(C(=O)NCc1ccccc1)C2 (configuration not stated)
  Methyltransferases: i
Cc1ccc(Cn2c(=O)c3ccccc3n3c(-c4ccccc4)nnc23)cc1
  Methyltransferases: i
COCCNC(=O)c1nc(-c2ccsc2)c2ccccn12
  Methyltransferases: i
COc1ncc2cc(C(=O)Nc3cc(C(=O)NCc4cccc(Cl)c4)ccc3Cl)c(=O)[nH]c2n1
  Methyltransferases: i

A different layout for some results above.
mol	Methyltransferases
CC1C/C=C/C=C\CCCCC(O)C/C=C/C(=O)O1 (configuration not stated)	i
O=C1NCc2nc3ccccc3c(=O)n2C1Cc1c[nH]c2ccccc12 (configuration not stated)	i

New compounds follow:
Clc1cc(NCc2ccccn2)n2nccc2n1
  Methyltransferases: i
C=C1C[C@]23C[C@H]1CC[C@H]2C1=C[C@H]2OC(=O)[C@@](C)([C@H]1[C@@H]3C(=O)O)[C@H]2O
  Methyltransferases: i
Cc1cc2c(cc3n2CC(C)(C(=O)NC2CCCCCC2)N(Cc2cccc(Cl)c2)C3=O)o1 (configuration not stated)
  Methyltransferases: i
COC(=O)c1cc2n(n1)CC(C)(C(=O)NC1CCCCCC1)N(c1ccc(C)c(C)c1)C2=O (configuration not stated)
  Methyltransferases: i
CCCc1cc(C(=O)N2CCc3c(nc(-c4cccnc4)[nH]c3=O)C2)n[nH]1
  Methyltransferases: i
O=C(COc1cccc2c(=O)[nH]ccc12)c1ccccc1
  Methyltransferases: ?
CCOc1ccc(N2C(=O)c3cc4sc(CC)cc4n3CC2(C)C(=O)NC2CCCCC2)cc1 (configuration not stated)
  Methyltransferases: i
C=CCn1cc(CN2CCC(Oc3ccc4ccccc4c3)(C(=O)O)CC2)cn1
  Methyltransferases: i
O=c1c2ccccc2n2c(-c3ccc(O)cc3)nnc2n1Cc1ccc(F)cc1
  Methyltransferases: i
CCCN1C(=O)CCc2cc(NC(=O)NCCCOCC)ccc21
  Methyltransferases: ?
CC(C)n1nc(-c2ccc(NC(=O)Nc3cccc(C(F)(F)F)c3)cc2)c2c(N)ncnc21
  Methyltransferases: +
CCOc1ccc(-c2cc3n(n2)CC(C)(C(=O)NC2CCCCC2)N(C2CCCC2)C3=O)cc1 (configuration not stated)
  Methyltransferases: i
O=C(CCn1ccc2cc(S(=O)(=O)N3CCCCC3)ccc21)NCc1cccc(F)c1
  Methyltransferases: i
Cc1cc(C)c(S(=O)(=O)NCCc2nc(-c3ccc(F)cc3)n[nH]2)cc1C
  Methyltransferases: i
COCCc1noc(-c2ccc(N(C)Cc3ccnc(C)c3)nc2)n1
  Methyltransferases: i
O=C(NC1CC(=O)N(Cc2cccc(F)c2)C1)c1ccccc1-n1cccn1 (configuration not stated)
  Methyltransferases: i
CCOC(=O)c1cc2n(n1)CC(C)(C(=O)NC1CCCCCC1)N(c1ccc(OCC)cc1)C2=O (configuration not stated)
  Methyltransferases: i
CCOC(=O)c1cc2n(n1)CC(C)(C(=O)NC1CCCCCC1)N(c1cc(C)ccc1C)C2=O (configuration not stated)
  Methyltransferases: i
CCOC(=O)Cc1ccc(NC(=O)N2Cc3c(sc4c3CCCC4)-n3cccc3C2c2cccc(F)c2)cc1 (configuration not stated)
  Methyltransferases: i
Cc1ccc(NC(=O)CSc2nnc3n(Cc4ccc(F)cc4)c(=O)c4ccccc4n23)c(C)c1
  Methyltransferases: i
Cn1cncc1-c1nnc([C@H]2CCN(CC3CCCCC3)C2)o1
  Methyltransferases: i
COc1ccc(OCc2nc(C)c(CCO)c(=O)n2CC(=O)NC(C)CCc2ccccc2)cc1 (configuration not stated)
  Methyltransferases: i
COC(=O)c1cc2n(n1)CC(C)(C(=O)NC1CCCCC1)N(Cc1ccc(OC(C)C)cc1)C2=O (configuration not stated)
  Methyltransferases: i
COc1cccc(CNC(=O)CCn2ccc3cc(S(=O)(=O)N4CCC(C)CC4)ccc32)c1
  Methyltransferases: i
COc1ccc(NC(=O)N2CCCC(CN3CCC(C)CC3)CC2)cc1 (configuration not stated)
  Methyltransferases: i

CCOC(=O)c1cccc(NCC2=CC(C)(C)Oc3ccc(OC)cc32)c1
  Methyltransferases: i
C=Cc1ccc(Cn2nc3n(CCCOC(C)C)c(=O)c4ccccc4n3c2=O)cc1
  Methyltransferases: i
CCCn1c(=O)c2ccc(C(=O)NC(C)C)cc2n2c(SCC(=O)Nc3ccccc3OC)nnc12
  Methyltransferases: i
COc1cc(N)c(Cl)cc1C(=O)NC[C@@H]1CCN2CCC[C@@H]12
  Methyltransferases: i
C[C@]1(OC(=O)/C=C/c2ccccc2)C[C@@H](O)[C@]2(O)C=CO[C@@H](O[C@@H]3O[C@H](CO)[C@@H](O)[C@H](O)[C@H]3O)[C@@H]21
  Methyltransferases: i
CCc1ccc(CN2C(=O)c3nc4ccccc4n3CC2(C)C(=O)NCc2ccccc2)cc1 (configuration not stated)
  Methyltransferases: i
CC(C)CNC(=O)c1ccc2c(=O)n(CC(C)C)c3nn(CC(=O)N(C)c4ccccc4)c(=O)n3c2c1
  Methyltransferases: i
CC1CCC(=O)CC(O)C(O)CC(=O)O1 (configuration not stated)
  Methyltransferases: i
Clc1ccc(CN[C@H]2CCN(c3ncc(Br)cn3)C2)c(Cl)c1
  Methyltransferases: i
Cc1cc(N2CCN(C(=O)Oc3ccc(-c4ccccc4)cn3)CC2)c2ccccc2n1
  Methyltransferases: ?
S=c1ssc2c1CCC2
  Methyltransferases: +
O=C(Nc1ccc2c(c1)CCN(Cc1ncn[nH]1)C2)c1ccccc1-c1ccc(C(F)(F)F)cc1
  Methyltransferases: i
CCCn1c(=O)c2ccc(C(=O)NCC(C)C)cc2n2c(SCC(=O)Nc3ccccc3C)nnc12
  Methyltransferases: i
CC1CCCCN1CCCN1C(=O)c2cc3occc3n2CC1(C)C(=O)NC1CCCCCC1 (configuration not stated)
  Methyltransferases: i
COc1ccc(-c2nn3c(-c4ccco4)nnc3s2)cc1OC
  Methyltransferases: ?
C=C[C@@]12COC(=O)C(=C)C1[C@@H](O)[C@H](C(=C)C(=O)OC)[C@@H](OC(=O)C(=C)CO)C2 (some centres not stated)
  Methyltransferases: i
CC(C)OCCCn1c(=O)c2cc(Cl)ccc2n2c(SCc3ccccc3)nnc12
  Methyltransferases: i
CC1c2cccn2CCN1C(=O)Nc1ccc(F)cc1 (configuration not stated)
  Methyltransferases: i
CN1CCC2(CCC1=O)CN(C(=O)CCOc1ccccc1)CCN2C (configuration not stated)
  Methyltransferases: i
Cc1cccc(NC(=O)CSc2nnc3n(CC(C)C)c(=O)c4ccc(Cl)cc4n23)c1
  Methyltransferases: i
CCN1CCN(c2ccc(C(=O)N3CCCC(c4ccccc4)CC3)cn2)CC1 (configuration not stated)
  Methyltransferases: i
CCCn1c(=O)c2ccc(C(=O)NCC(C)C)cc2n2c(SCC(=O)Nc3ccc(CC)cc3)nnc12
  Methyltransferases: i
C[C@H]1CC[C@@]2(OC1)O[C@H]1CC3C4CC[C@H]5C[C@@H](O[C@@H]6O[C@H](CO)[C@H](O[C@@H]7O[C@H](CO)[C@@H](O)[C@H](O[C@@H]8OC[C@@H](O)[C@H](O)[C@H]8O)[C@H]7O[C@@H]7O[C@H](CO)[C@@H](O)[C@H](O)[C@H]7O)[C@H](O)[C@H]6O)[C@H](O)C[C@]5(C)C4=CC(=O)[C@]3(C)[C@H]1[C@@H]2C (some centres not stated)
  Methyltransferases: i
Cc1cc(C)n(CC(=O)N2CCCC2c2nc(CCOCC3CCOCC3)no2)n1 (configuration not stated)
  Methyltransferases: i
CC(=O)N(C)CCc1noc(C2CN(Cc3c(F)cccc3Cl)C2)n1
  Methyltransferases: i

CCOC(=O)c1cc2n(n1)CC(C)(C(=O)NC1CCC(C)CC1)N(c1ccc(C)cc1C)C2=O (configuration not stated)
  Methyltransferases: i
CC1(C(=O)NC2CCCCC2)Cn2c(cc3occc32)C(=O)N1CCN1CCCCCC1 (configuration not stated)
  Methyltransferases: i
COc1ccccc1Nc1ccnc(N2CCCC(C(=O)NCc3cccc(Cl)c3)C2)n1 (configuration not stated)
  Methyltransferases: i
CC1(C(=O)NC2CCCC2)Cn2c(ccc2-c2ccco2)C(=O)N1CCN1CCCC1 (configuration not stated)
  Methyltransferases: i
Cc1ccccc1CCN1C(=O)c2cc3ccccc3n2CC1(C)C(=O)NCc1ccccc1 (configuration not stated)
  Methyltransferases: i
CCc1cc2c(cc3n2CC(C)(C(=O)NC2CCCCC2)N(CCc2ccc(Cl)cc2)C3=O)s1 (configuration not stated)
  Methyltransferases: i
COCC1CN(C)CC12CCN(Cc1sccc1C)CC2 (configuration not stated)
  Methyltransferases: i
CC(C)c1noc([C@@H]2Cc3nc[nH]c3CN2C(=O)CC(C)(C)CC(=O)O)n1
  Methyltransferases: i
CCc1nc2c(c(-c3ccc(O)cc3)n1)CCN(Cc1ccc(F)cc1)CC2
  Methyltransferases: i
COc1ccc(CC(=O)N2Cc3ccccc3CC23CCCN(C(=O)CN)C3)cc1 (configuration not stated)
  Methyltransferases: i
CCCn1c(=O)c2ccc(C(=O)NCC(C)C)cc2n2c(=O)n(CC(=O)c3cccc(Cl)c3)nc12
  Methyltransferases: i
COc1ccc(OC)c2c1cc1n2CC(C)(C(=O)NC2CCCCC2)N(Cc2ccccc2)C1=O (configuration not stated)
  Methyltransferases: i
Cc1ccc(Cn2c(=O)c3ccccc3n3c(SCC(=O)Nc4ccccc4C)nnc23)cc1
  Methyltransferases: i
CC1(C(=O)NC2CCCCC2)Cn2c(ccc2-c2ccccc2)C(=O)N1CCc1cccs1 (configuration not stated)
  Methyltransferases: i
CCN1CCN(c2nc3c(S(=O)(=O)c4ccc(C)c(C)c4)nnn3c3ccc(Cl)cc23)CC1
  Methyltransferases: i
COCCN1C(=O)c2c(NC(C)=O)c3cc(F)ccc3n2CC1(C)C(=O)NC1CCCC1 (configuration not stated)
  Methyltransferases: i
Cc1cc(C)cc(NC(=O)Cn2nc3n(C(C)C)c(=O)c4ccc(C(=O)NC(C)C)cc4n3c2=O)c1
  Methyltransferases: i
CC(C)COc1cc(=O)n2c(c1C(=O)NC1CCCCC1)CCCCC2
  Methyltransferases: i
CCCn1c(=O)c2ccc(Cl)cc2n2c(SCC(=O)Nc3ccccc3OC)nnc12
  Methyltransferases: i
CC1CC(C)CN(S(=O)(=O)c2ccc3c(c2)oc(=O)n3CC(=O)Nc2ccc(Cl)cc2)C1 (configuration not stated)
  Methyltransferases: i
CCOC(=O)c1cc2n(n1)CC(C)(C(=O)NCCC(C)C)N(Cc1ccc(C)cc1)C2=O (configuration not stated)
  Methyltransferases: i

Assay outcomes (PubChem)
